Vaccinia inh – Vaccinia orthopox stage-specific inhibition; Vaccinia-infected cells, mCherry/Venus stage reporter fluorescence; active compounds read low; some inactives read as strong as hits; activity change (mCherry), % (no concentration beside the values); hit rate 0.01% among 89,000;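 active means mCherry past -33% and 40 or more points under the early reporter, replicates agreeing; inconclusive means past -33% without that gap or agreement; tested in A549 cells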;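 further: scaled between vehicle wells and reference inhibitor wells; 23 nL library stock went into each well; one replicate is shown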
Vaccinia inh Venus – further read-out of Vaccinia inh, marked with its call; activity change (Venus), %; measured here: Venus reporter, other viral stage;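 negative = less Venus signal; first of two replicates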
* marks the source's active call; other numbers are inactive results; ? = inconclusive; . = not tested or not shown.

compound | Vaccinia inh | Vaccinia inh Venus
Cc1ccccc1CN(C)C[C@H]1OCc2cn(nn2)CCCC(=O)N([C@H](C)CO)C[C@@H]1C | 4 | 1
COc1ccc2c3c([nH]c2c1)[C@H](CO)N(C(=O)NC(C)C)CC31CN(Cc2ccc(F)cc2)C1 | -19 | -24
Cc1ccc(S(=O)(=O)Nc2ccc3c(c2)C(=O)N([C@@H](C)CO)C[C@H](C)[C@H](CN(C)Cc2ccc4c(c2)OCO4)OCCCC[C@@H](C)O3)cc1 | ? | .
Cc1noc(C)c1S(=O)(=O)Nc1ccc2c(c1)C(=O)N([C@H](C)CO)C[C@@H](C)[C@@H](CN(C)C(=O)Cc1ccccc1)OCCCC[C@H](C)O2 | -2 | -10
Cc1noc(C)c1NC(=O)N(C)C[C@H]1Oc2ccc(NC(=O)Cc3ccccc3)cc2C(=O)N([C@@H](C)CO)C[C@@H]1C | 7 | 4
O=C(C[C@@H]1C[C@@H]2c3cc(NC(=O)NC4CCCC4)ccc3O[C@@H]2[C@H](CO)O1)NCC(F)(F)F | -9 | -9
C[C@@H]1CN([C@@H](C)CO)S(=O)(=O)c2ccc(C3=CCCCC3)cc2O[C@H]1CN(C)C(=O)c1ccc(F)cc1 | ? | .
CCCC(=O)Nc1ccc2c(c1)C(=O)N(C)[C@@H]1CC[C@H](CC(=O)Nc3ccccc3)O[C@H]1CO2 | -8 | -5
O=C(NC1CCC1)[C@@H]1[C@@H](CO)[C@@H]2Cn3c(ccc(-c4ccccc4)c3=O)[C@@H]2N1Cc1ccccn1 | 15 | 17
CC(C)C#Cc1ccc2c(c1)O[C@H](CN(C)C(=O)c1ccncc1)[C@H](C)CN([C@@H](C)CO)S2(=O)=O | -4 | -6
C[C@H](CO)N1C[C@H](C)[C@H](CN(C)CC2CCCC2)Oc2ncc(Br)cc2C1=O | 10 | 11
C[C@H]1CN([C@@H](C)CO)C(=O)c2cc(NS(C)(=O)=O)ccc2O[C@H]1CN(C)Cc1ccc(Oc2ccccc2)cc1 | -33 | -27
O=C(C1=C[C@H](c2ccccc2)C[C@H](OCc2ccc(CO)cc2)O1)N1CCOCC1 | 9 | 5
CC(C)NC(=O)Nc1ccc2c(c1)CC(=O)N([C@@H](C)CO)C[C@@H](C)[C@@H](CN(C)S(=O)(=O)c1cccs1)O2 | 6 | 4
CCNC(=O)C[C@H]1C=C[C@@H](NC(=O)C2CC2)[C@@H](CO)O1 | 2 | 1
CC(C)[C@@H]1COCc2cn(nn2)CC[C@@H](Cc2ccccc2)C(=O)N1 | 13 | 7
O=C(C[C@H]1CC[C@@H]2[C@H](COC[C@H](O)CN2C(=O)Nc2ccc(Cl)c(Cl)c2)O1)NCc1ccc(Cl)c(Cl)c1 | ? | .
CCS(=O)(=O)N1CC2(C1)[C@H](c1ccccc1)[C@@H](CO)N2C(=O)C1CCCC1 | 0 | 3
C/C=C/c1cnc2c(c1)C(=O)N([C@H](C)CO)C[C@@H](C)[C@H](CN(C)S(=O)(=O)c1cccs1)O2 | 11 | -2
COc1ccccc1-c1cn(CC[C@@H]2CC[C@@H](NC(=O)NC(C)C)[C@H](CO)O2)nn1 | 9 | 10
C[C@@H]1CN([C@H](C)CO)C(=O)c2cc(NC(=O)c3ccncc3)ccc2O[C@@H](C)CCCCO[C@H]1CN(C)S(=O)(=O)c1cccs1 | 12 | 0
O=C(c1cccnc1)N1CC(=O)N2[C@H](CO)[C@H](c3ccc(-c4cccnc4)cc3)[C@@H]2C1 | 7 | -1
CN(C)CC#Cc1ccc([C@@H]2[C@H]3CN(C(=O)C4CCC4)CCCCN3[C@H]2CO)cc1 | 13 | 12
C[C@H](CO)N1C[C@H](C)[C@@H](CN(C)Cc2ccccc2)Oc2ccc(NC(=O)NC3CCCCC3)cc2C1=O | 4 | 4

Given with two lines to a compound: entries from further up
Under each structure: Vaccinia inh, Vaccinia inh Venus
C/C=C/c1cnc2c(c1)C(=O)N([C@H](C)CO)C[C@@H](C)[C@H](CN(C)S(=O)(=O)c1cccs1)O2
 : 11, -2
COc1ccccc1-c1cn(CC[C@@H]2CC[C@@H](NC(=O)NC(C)C)[C@H](CO)O2)nn1
 : 9, 10

Other results follow:
compound | Vaccinia inh | Vaccinia inh Venus
C[C@@H]1CN([C@H](C)CO)C(=O)c2cc(-c3ccccc3F)cnc2O[C@H]1CN(C)C(=O)c1ccccn1 | 15 | 10
C[C@H](CO)N1C[C@H](C)[C@H](CN(C)Cc2ccccn2)Oc2ncc(C#CC3CC3)cc2C1=O | -1 | 0
O=C(Nc1cccc(F)c1)N1CC(=O)N2[C@H](CO)[C@@H](c3ccc(C#CCC4CCCC4)cc3)[C@@H]2C1 | -16 | -13
CC(C)CC#Cc1ccc2c(c1)O[C@H](CN(C)Cc1ccncc1)[C@@H](C)CN([C@@H](C)CO)S2(=O)=O | ? | .
O=C(NC[C@@H]1CC[C@@H]2[C@@H](CN2Cc2ccccc2F)O1)C1CCCCC1 | 10 | 10
CCC(=O)N1C[C@@H](C)[C@@H](OC)CN(C)C(=O)c2ccc(NS(C)(=O)=O)cc2OC[C@@H]1C | 0 | 1
Cc1ccc(S(=O)(=O)N[C@H]2CC[C@@H](CCNC(=O)c3ccc4c(c3)OCO4)O[C@H]2CO)cc1 | -13 | -8
C[C@@H]1CN([C@@H](C)CO)C(=O)CCCn2cc(nn2)CO[C@H]1CN(C)C(=O)C1CC1 | 9 | 0

A different layout for some results above:
The line under a structure holds: Vaccinia inh	Vaccinia inh Venus
O=C(Nc1cccc(F)c1)N1CC(=O)N2[C@H](CO)[C@@H](c3ccc(C#CCC4CCCC4)cc3)[C@@H]2C1
  -16	-13
CC(C)CC#Cc1ccc2c(c1)O[C@H](CN(C)Cc1ccncc1)[C@@H](C)CN([C@@H](C)CO)S2(=O)=O
  ?	.
O=C(NC[C@@H]1CC[C@@H]2[C@@H](CN2Cc2ccccc2F)O1)C1CCCCC1
  10	10
CCC(=O)N1C[C@@H](C)[C@@H](OC)CN(C)C(=O)c2ccc(NS(C)(=O)=O)cc2OC[C@@H]1C
  0	1

Continued:
compound | Vaccinia inh | Vaccinia inh Venus
CCC(=O)N1CCCCN2[C@H](CO)[C@@H](c3ccc(C#Cc4cccnc4)cc3)[C@H]2C1 | 5 | 6
COc1ccc(S(=O)(=O)N(C)C[C@H]2Oc3cc(C#CC4CC4)ccc3S(=O)(=O)N([C@@H](C)CO)C[C@@H]2C)cc1 | ? | .
COc1ccc(S(=O)(=O)N(C)C[C@H]2OCCCC[C@H](C)Oc3ccc(N(C)C)cc3C(=O)N([C@H](C)CO)C[C@H]2C)cc1 | 9 | 3
COCCNC(=O)C[C@@H]1CC[C@@H]2[C@@H](COc3ccc(NC(=O)c4cc(C)on4)cc3C(=O)N2C)O1 | 17 | 15
COc1ccc(S(=O)(=O)N(C)C[C@H]2OCCCC[C@@H](C)Oc3ccc(NS(=O)(=O)c4ccccc4)cc3C(=O)N([C@@H](C)CO)C[C@@H]2C)cc1 | -3 | -7
COC(=O)C[C@@H]1C[C@H]2c3cc(N(C)C)ccc3O[C@H]2[C@@H](CO)O1 | 19 | 16
CCCC#Cc1ccc([C@@H]2[C@@H](CO)N3C(=O)CN(C(=O)c4ccc(F)cc4)C[C@H]23)cc1 | -6 | -9
C[C@@H]1CN([C@@H](C)CO)C(=O)c2cccc(NC(=O)Nc3ccc(F)cc3)c2O[C@H]1CN(C)Cc1ccc(Cl)c(Cl)c1 | ? | .
C[C@H]1CN([C@@H](C)CO)C(=O)c2cc(NC(=O)Nc3ccccc3)ccc2O[C@H]1CN(C)Cc1ccc(-c2ccccc2)cc1 | -24 | -11
CC(C)NC(=O)N(C)C[C@@H]1Oc2ncc(C#Cc3ccccc3F)cc2C(=O)N([C@@H](C)CO)C[C@@H]1C | 2 | 4
N#Cc1ccc(-c2ccc([C@H]3[C@@H](CO)N4CCCCN(C(=O)Cc5ccccc5)C[C@@H]34)cc2)cc1 | -24 | -19
C[C@H](CO)N1C[C@H](C)[C@H](CN(C)Cc2ccc(Cl)c(Cl)c2)Oc2ccc(NS(=O)(=O)c3cn(C)cn3)cc2CC1=O | 7 | 9
CO[C@@H]1CN(C)C(=O)c2cc(NC(=O)C3CC3)ccc2OC[C@@H](C)N(Cc2ccncc2)C[C@H]1C | -4 | 2
CCCNC(=O)C[C@H]1C[C@H]2c3cc(NS(C)(=O)=O)ccc3O[C@H]2[C@@H](CO)O1 | 9 | 11
C[C@@H]1CN([C@@H](C)CO)C(=O)Cc2cc(NS(=O)(=O)c3ccc(Cl)cc3)ccc2O[C@@H]1CN(C)Cc1ccncc1 | 7 | -2
CCC(=O)Nc1ccc2c(c1)C(=O)N(C)[C@H]1CC[C@H](CC(=O)NCCN3CCCCC3)O[C@@H]1CO2 | 9 | 1

Grouped by structure: those above containing a thiophene ring, fused or not (3)
compound | Vaccinia inh | Vaccinia inh Venus
CC(C)NC(=O)Nc1ccc2c(c1)CC(=O)N([C@@H](C)CO)C[C@@H](C)[C@@H](CN(C)S(=O)(=O)c1cccs1)O2 | 6 | 4
C/C=C/c1cnc2c(c1)C(=O)N([C@H](C)CO)C[C@@H](C)[C@H](CN(C)S(=O)(=O)c1cccs1)O2 | 11 | -2
C[C@@H]1CN([C@H](C)CO)C(=O)c2cc(NC(=O)c3ccncc3)ccc2O[C@@H](C)CCCCO[C@H]1CN(C)S(=O)(=O)c1cccs1 | 12 | 0

Additional entries.
compound | Vaccinia inh | Vaccinia inh Venus
C[C@@H]1CN([C@@H](C)CO)C(=O)c2cccc(NS(=O)(=O)c3ccc(Cl)cc3)c2O[C@H]1CN(C)C(=O)Nc1cccc2ccccc12 | 8 | 7
CCC(=O)N1[C@@H]2Cn3c(cccc3=O)[C@H]1[C@@H](C(=O)NCc1ccccc1)[C@@H]2CO | -2 | 6
CCCC#Cc1ccc([C@H]2[C@@H](CO)N3CCCCN(S(=O)(=O)Cc4ccccc4)C[C@@H]23)cc1 | ? | .
O=C(C[C@H]1C[C@H]2c3cc(NC(=O)Nc4ccc(C(F)(F)F)cc4)ccc3O[C@H]2[C@@H](CO)O1)NC1CCCCC1 | 6 | 3
COC(=O)[C@H]1[C@H](CO)[C@H]2Cn3c(ccc(C4=CCCCC4)c3=O)[C@@H]1N2Cc1cccnc1 | 0 | -2
CCS(=O)(=O)Nc1ccc2c(c1)C(=O)N(C)C[C@@H](OC)[C@H](C)CN(Cc1nccs1)[C@@H](C)CO2 | 24 | -2
CC(=O)N(C[C@H]1N[C@H](CO)[C@H]1c1ccc(-c2ccccc2)cc1)C(C)C | ? | .
C[C@@H]1CCCCO[C@H](CN(C)C(=O)c2ccccc2)[C@H](C)CN([C@@H](C)CO)C(=O)c2cc(NC(=O)Nc3ccc4c(c3)OCO4)ccc2O1 | 5 | -6
C[C@@H]1CN([C@H](C)CO)C(=O)c2cc(NC(=O)Cc3cn(C)c4ccccc34)ccc2O[C@H]1CN(C)S(=O)(=O)c1ccccc1 | 3 | 5
C[C@H](O)C#Cc1cnc2c(c1)C(=O)N([C@H](C)CO)C[C@H](C)[C@H](CN(C)C(=O)CC1CC1)O2 | 13 | 8
COCC(=O)N[C@H]1C=C[C@H](CC(=O)NCc2ccc(Cl)cc2)O[C@H]1CO | 6 | 7
CN1C(=O)c2cc(NC(=O)C3CCCC3)ccc2OC[C@@H]2O[C@H](CC(=O)Nc3ccccc3)CC[C@H]21 | 4 | 4
C[C@H]1CN([C@@H](C)CO)C(=O)c2cc(-c3ccc(F)cc3)cnc2O[C@@H]1CN(C)CC1CCOCC1 | 1 | 3
CO[C@H]1CN(C)C(=O)c2ccc(NC(C)=O)cc2OC[C@H](C)N(CC2CC2)C[C@@H]1C | 5 | 11
C[C@@H]1CN([C@H](C)CO)C(=O)c2cccc(NS(=O)(=O)c3cn(C)cn3)c2O[C@H]1CN(C)Cc1ccncc1 | 19 | 16
O=C(c1ccc(F)cc1)N1CCCCN2[C@H](CO)[C@@H](c3ccc(C#CC4(O)CCCC4)cc3)[C@H]2C1 | 6 | 4
C[C@@H]1CN([C@H](C)CO)C(=O)c2cc(NC(=O)C3CCCCC3)ccc2O[C@H]1CN(C)S(=O)(=O)c1ccc(F)cc1 | -4 | 1
COc1ccc(NC(=O)N(C)C[C@@H]2Oc3ncc(C#C[C@H](C)O)cc3C(=O)N([C@H](C)CO)C[C@H]2C)cc1 | 18 | 0
C[C@@H]1CN([C@@H](C)CO)S(=O)(=O)c2ccc(C#Cc3cccnc3)cc2O[C@H]1CN(C)C | 6 | -1
CN(C)C(=O)C[C@H]1C=C[C@@H](NC(=O)Nc2cccc(F)c2)[C@H](CO)O1 | 16 | 8
C[C@@H]1CN([C@H](C)CO)C(=O)c2cccc(NS(=O)(=O)c3cccs3)c2O[C@@H]1CN(C)S(=O)(=O)c1cccs1 | 4 | -1
C[C@H](CO)N1C[C@H](C)[C@@H](CN(C)Cc2ccc(Cl)c(Cl)c2)Oc2ccc(N(C)C)cc2C1=O | -20 | -23
C[C@@H]1CCCCO[C@H](CN(C)C(=O)CCCN(C)C)[C@H](C)CN([C@@H](C)CO)C(=O)c2cc(NC(=O)C3CCCCC3)ccc2O1 | 8 | 0
C[C@H]1CCCCO[C@H](CN(C)Cc2ccc3c(c2)OCO3)[C@@H](C)CN([C@@H](C)CO)C(=O)c2cc(NC(=O)Nc3ccc(C(F)(F)F)cc3)ccc2O1 | ? | .
C[C@@H]1CN([C@@H](C)CO)C(=O)c2cc(Br)cnc2O[C@H]1CN(C)Cc1ccccc1 | 22 | 7
O=C(c1cnccn1)N1CC[C@@H]2[C@H]1c1cc(-c3ccccc3F)ccc1N[C@@H]2CO | -7 | 1
N#C[C@@H]1[C@@H](c2ccccc2)[C@@H](CO)N1C(=O)Cc1ccccn1 | 15 | 20
O=C(O)C[C@H]1C=C[C@@H](NC(=O)c2ccncc2)[C@H](CO)O1 | -1 | 3

Screens: PubChem BioAssay, Broad Institute

Some of the compounds tested; the hit share may differ from the screen's.
